High-throughput results as filed in PubChem BioAssay.
PV pol inh: inhibitors of poliovirus RNA polymerase binding and polymerization; P03300; AID 588519; 150,000 tested, 0.66% active; poliovirus polymerase elongation, fluorescence polarization; stronger effect = lower value; % elongation, % (compound at 16.7 µg/mL); in the data active = % elongation below about 90%; note: some results filed as inactive read as strong as hits
Target sequence (P03300 1749-2209 limits assumed): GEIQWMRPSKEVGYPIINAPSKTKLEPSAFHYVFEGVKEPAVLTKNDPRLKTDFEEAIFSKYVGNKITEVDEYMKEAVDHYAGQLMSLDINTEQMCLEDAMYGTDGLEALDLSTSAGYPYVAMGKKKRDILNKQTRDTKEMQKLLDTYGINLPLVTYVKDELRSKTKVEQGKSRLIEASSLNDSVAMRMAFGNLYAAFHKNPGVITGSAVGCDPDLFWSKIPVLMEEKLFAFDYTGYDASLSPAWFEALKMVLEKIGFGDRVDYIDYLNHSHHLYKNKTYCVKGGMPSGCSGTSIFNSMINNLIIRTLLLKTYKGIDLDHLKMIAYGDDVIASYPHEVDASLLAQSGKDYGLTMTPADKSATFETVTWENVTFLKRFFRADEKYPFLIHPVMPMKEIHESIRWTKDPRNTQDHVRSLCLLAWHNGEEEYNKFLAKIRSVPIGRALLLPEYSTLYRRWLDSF
MbtI inh: MbtI salicylate synthase inhibition. P9WFX0. purified MbtI enzyme, fluorescence intensity read-out. inhibition, %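 (about 17 µg/mL by stock and volumes)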. 100,000 tested, 0.89% active;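 active = above 50% in both replicates, above 80% if mildly self-fluorescent; inactive = the rest, strongly fluorescent compounds included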;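 note: 0% = mean of negative and 100% = mean of positive controls; one replicate is shown; some compounds called inactive have numbers as strong as hits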
Target sequence (P9WFX0 whole entry, looked up): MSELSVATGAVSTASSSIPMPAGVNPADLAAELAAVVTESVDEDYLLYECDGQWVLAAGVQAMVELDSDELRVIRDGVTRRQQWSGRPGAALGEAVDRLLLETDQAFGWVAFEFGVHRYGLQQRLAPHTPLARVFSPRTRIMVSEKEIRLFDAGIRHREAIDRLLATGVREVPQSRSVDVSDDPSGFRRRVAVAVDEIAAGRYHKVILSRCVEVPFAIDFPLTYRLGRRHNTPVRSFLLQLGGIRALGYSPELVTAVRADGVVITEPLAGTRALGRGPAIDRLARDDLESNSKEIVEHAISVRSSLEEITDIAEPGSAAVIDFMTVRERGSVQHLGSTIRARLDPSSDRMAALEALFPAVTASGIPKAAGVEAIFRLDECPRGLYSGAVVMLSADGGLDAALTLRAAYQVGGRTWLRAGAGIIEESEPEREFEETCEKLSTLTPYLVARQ
Mtb MenB inh: blocks the Mycobacterium tuberculosis MenB enzyme; 100,000 tested, 0.43% active; inhibition, %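 (about 12 µg/mL by stock and volumes)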; MenB enzyme assay, absorbance read-out; some hits fall short of the stated cut;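 active = mean of two replicates above 30%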;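 note: 0% = no compound and 100% = wells with inactive enzyme; the first replicate is given; strong numbers were not always called active; inactives centre near -10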
PV pol inh intensity: second read-out of PV pol inh, no call of its own (marks repeat the call); % elongation; measured here: total intensity read-out; formula for this scale not given here;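 total fluorescence in place of polarization; lower means less elongation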
* marks the source's active call; other numbers are inactive results; i = inactive; / = no result given; & = joins results of further samples. Compounds were not picked by outcome, and some 1.7% of all compounds hit somewhere here.

Second line of a record: PV pol inh	PV pol inh intensity	MbtI inh	Mtb MenB inh
Cc1[nH]c(=S)[nH]c(=O)c1Cc1ccc(C(=O)O)o1
→ 101.0	102.0	26.9	-4.8
CC1Oc2ccccc2OC1(O)c1ccccn1 (configuration not stated)
→ 103.0	97.0	-2.8	/
CC(C)(C)c1ccc(CSc2nc3c(c(=O)[nH]2)CCC3)cc1
→ 99.0	100.0	81.7*	-16.7
COCCNC(=O)c1cc2c(=O)n(C)c3ccccc3c2s1
→ 99.0	102.0	76.6	-22.4
CC(=O)Oc1cccc(C(=O)N2CCC(C)CC2)c1
→ 99.0	102.0	-10.2	-3.2
Cc1cc(C)cc(NC(=O)COC(=O)c2cccnc2Cl)c1
→ 104.0	98.0	-0.6	/
CCCN(Cc1ccccc1)S(=O)(=O)c1ccc(N2C(=O)CCC2=O)cc1
→ 109.0	107.0	/	-7.2
CC(C)Cn1cc(C(=O)NCC2CCCO2)c2c3ccccc3n(C)c2c1=O (configuration not stated)
→ 100.0	103.0	116.2	-13.8
Clc1ccc2c(N3CCOCC3)ccnc2c1
→ 105.0	101.0	-23.4	-26.4
CCOc1ccc(CC(C(N)=O)C(N)=O)cc1
→ 101.0	104.0	-11.1	-22.2
Cc1cnc(C(=O)NCc2ccc(Cl)cc2Cl)cn1
→ 107.0	109.0	1.2	2.6
CC(C)(C)c1ccc(-c2cc(N)n(S(=O)(=O)c3cccc4nsnc34)n2)cc1
→ 100.0	103.0	-5.5	0.5
CCOC(=O)c1cc2cc(Cl)ccc2oc1=O
→ 101.0	100.0	2.0	18.1
CC(=O)NCCc1ccc(C(=O)O)cc1
→ 99.0	87.0	-5.7	-9.2
Cc1cccc(NCc2csc(-c3ccccc3)n2)c1
→ 104.0	98.0	14.8	/
COc1ccccc1NC(=O)c1ccccc1F
→ 102.0	102.0	0.7	-4.1
COC(=O)CNC(=O)c1c(-c2ccccc2)noc1C
→ 109.0	100.0	-7.5	-16.3
CCOC(=O)c1c(CN2CCCCC2)n(-c2ccccc2)c2ccc(OC(C)=O)cc12
→ 107.0	107.0	/	-16.9
Cc1c(C(=O)N2CCOCC2)cc(C(C)(C)C)n1-c1ccccc1
→ 103.0	96.0	1.9	12.1
O=C(c1ccc(=O)[nH]c1)N1CCSC1=NCc1ccccc1
→ 100.0	102.0	14.5	5.3
O=c1nc2n(-c3ccc(Br)cc3)c3cccc(Cl)c3cc-2c(=O)[nH]1
→ 102.0	97.0	12.0	3.1
NNC(=O)CSc1n[nH]c(=O)[nH]c1=O
→ 102.0	104.0	2.3	-7.9
CCCCS(=O)(=O)Nc1cc(C)cc(C)c1
→ 101.0	100.0	-3.6	-17.5
C=CCc1c(C)nc(N)[nH]c1=O
→ 105.0	104.0	0.9	3.1
CC1CC(C)CN(CC(C)(C)NS(=O)(=O)c2ccc(Cl)cc2)C1 (configuration not stated)
→ 101.0	101.0	4.6	-23.0
COc1ccc(N2C(=O)CC(c3cn(Cc4ccccc4)c4ccccc34)C2=O)cc1 (configuration not stated)
→ 102.0	107.0	-4.2	-10.2
O=c1ccc2cc(S(=O)(=O)N3CCCCC3)ccc2[nH]1
→ 104.0	105.0	5.8	-10.6
CC(=O)Nc1cccc(-n2nnc(SCC(=O)c3cc(-c4ccccc4)no3)n2)c1
→ 103.0	105.0	-4.2	3.0
O=S(=O)(c1ccccc1)C1c2ccccc2Oc2ccccc21
→ 99.0	105.0	-2.5	0.3
Cc1ccc(C2=NS(=O)(=O)N(C)C(C(=O)NCc3ccccn3)=C2)cc1
→ 100.0	102.0	8.2	2.6

One compound at a time, from the list above. Values in the order: PV pol inh	PV pol inh intensity	MbtI inh	Mtb MenB inh
`O=S(=O)(c1ccccc1)C1c2ccccc2Oc2ccccc21` across the screens: 99.0	105.0	-2.5	0.3
`Cc1ccc(C2=NS(=O)(=O)N(C)C(C(=O)NCc3ccccn3)=C2)cc1` across the screens: 100.0	102.0	8.2	2.6

The list continues.
Second line of a record: PV pol inh	PV pol inh intensity	MbtI inh	Mtb MenB inh
CN(C)CCN=Cc1c(O)n(Cc2ccccc2)c(=O)c2ccccc12
→ 97.0	93.0	0.2	-6.6
CCCN(c1ccccc1OC)S(=O)(=O)c1cc(Br)cnc1N
→ 103.0	107.0	-0.5	-9.5
Cc1nn(C(=O)c2ccco2)c(-c2ccccc2)c1Sc1ccccc1
→ 100.0	102.0	8.8	-20.2
O=C1NC(c2ccccc2)=N/C1=C\c1ccccc1
→ 101.0	103.0	-4.5	-36.1
O=C1CCC(=O)N1c1ccc(S(=O)(=O)NCCCN2CCN(Cc3ccccc3)CC2)cc1
→ 102.0	97.0	1.8	13.4
O=C1/C(=C/NC2CC2)S(=O)(=O)N(Cc2cccc(F)c2)c2ccsc21
→ 100.0	104.0	-34.7	3.3
O=C(CSc1nc2ccccc2[nH]1)NCCc1ccccc1
→ 103.0	101.0	14.7	/
COc1ccccc1NC(=O)CCN1C(=O)c2ccccc2Sc2ncccc21
→ 103.0	107.0	-0.5	-1.8
CCN(CC)C(=O)CSc1nc2c(c(=O)n(C)c(=O)n2C)n1Cc1ccccc1C
→ 102.0	101.0	2.8	-35.2
CC(C)(C)c1ccc(-c2ncccc2O)cc1
→ 102.0	103.0	88.7	-76.9
CCc1nnc(NC(=O)CCN2C(=O)NC3(CCCC3)C2=O)s1
→ 101.0	98.0	-9.2	-21.3
CC(NC(=O)NCc1noc2ccccc12)c1ccccc1 (configuration not stated)
→ 102.0	105.0	-5.0	-8.4
O=S(=O)(c1ccc(-n2cccn2)cc1)N1CCCC1
→ 100.0	101.0	-3.6	-9.1
Cc1ccc(S(=O)(=O)N2CCN(C(=O)c3c(C)nn(-c4ccccc4)c3Cl)CC2)cc1
→ 100.0	101.0	0.6	17.4
CC(=O)N1c2ccccc2CCc2ccc(NC(=S)NC(=O)/C=C/c3ccccc3)cc21
→ 104.0	99.0	/	-35.1
CCCc1nc2ccccc2c2nc(N)nn12
→ 103.0	98.0	i	10.2
CN(C)c1ccc(C=C2C(=O)OC(C)(C)OC2=O)cc1
→ 105.0	103.0	-3.1	-18.6
CCOC(=O)Cc1nc(OCC(=O)c2ccc(F)cc2)cs1
→ 91.0	183.0	8.1	5.0
O=C1CC(c2ccccc2C(F)(F)F)C2=C(CC(c3cccs3)CC2=O)N1 (configuration not stated)
→ 100.0	103.0	-20.9	-12.0
O=C(CSc1nnc(-c2cccs2)n1CC1CCCO1)c1ccc2[nH]c(=O)oc2c1 (configuration not stated)
→ 107.0	117.0	-11.0	4.9
CCN(C(=S)NC(=O)c1ccc(Br)o1)c1ccccc1
→ 100.0	101.0	20.4	-17.0
CC(CN(C)C)CN1c2ccccc2CCc2ccccc21 (configuration not stated)
→ 99.0&102.0	102.0&104.0	-0.3&-17.3	-6.9&6.8
N#Cc1cc2cc3c(cc2nc1SCc1cccnc1)OCCO3
→ 100.0	104.0	2.6	11.8
COc1ccc(Cl)cc1NC=C1C(=O)OC2(CCCCC2)OC1=O
→ 101.0	100.0	4.0	-14.8
CCC(CC)C(=O)N1CCN(Cc2ccccc2)CC1
→ 101.0	104.0	2.3	9.5
COc1ccccc1Nc1nc2ccccc2c2nncn12
→ 104.0	103.0	-10.4	-15.2
CCNC(=O)COc1ccc(N(C)S(=O)(=O)c2ccc(Cl)cc2)cc1
→ 100.0	97.0	-6.2	1.9
CCOc1cc(-n2cnnn2)c(OCC)cc1NC(=O)c1cn(-c2ccc(F)cc2)nn1
→ 101.0	103.0	59.4	0.6
Cc1ccc(C)c(SCC(=O)OCC(=O)N2CCCc3ccccc32)c1
→ 100.0	98.0	-11.7	/
Cc1ccsc1C=Nc1ccc(O)cc1
→ 100.0	101.0	95.7*	-28.3
COC(=O)[C@@]1(C#N)C(c2cc(OC)cc(OC)c2)[C@@H](C#N)N2c3ccccc3C=C[C@@H]21 (some centres not stated)
→ 101.0	108.0	/	-6.4
CCCNCCc1ccccc1
→ 100.0	103.0	-12.6	-46.9
CC(C)(CNC(=O)c1cc2ccccc2cc1O)N1CCOCC1
→ 100.0	100.0	98.5	-19.0
Cc1c2cnn(CC(=O)N3CCC4(CC3)OCCO4)c(=O)c2c(C)n1Cc1ccccc1F
→ 100.0	102.0	4.6	2.1
O=C1c2ccccc2C(=O)N1SSN1C(=O)c2ccccc2C1=O
→ 85.0*	76.0*	46.7	-1.0
CCCNc1nc2ccccc2n2c(C)nnc12
→ 101.0	103.0	-6.7	-5.3
O=C(O)C1C2C=CC(C2)C1C(=O)N1CCN(C(c2ccccc2)c2ccccc2)CC1 (configuration not stated)
→ 94.0	95.0	32.0	10.7
O=c1c2ccccc2cnn1-c1nc2ccccc2[nH]1
→ 107.0	115.0	146.0	-9.0
NC(=O)N=Nc1c(O)[nH]c2ccccc12
→ 102.0	101.0	17.0	-31.4
C#CCn1c(=NC(=O)c2ccc(S(=O)(=O)N3CCCC3)cc2)sc2cc3c(cc21)OCO3
→ 102.0	104.0	1.4	4.4

Some of the entries so far, bar-delimited:
SMILES | PV pol inh | PV pol inh intensity | MbtI inh | Mtb MenB inh
COC(=O)[C@@]1(C#N)C(c2cc(OC)cc(OC)c2)[C@@H](C#N)N2c3ccccc3C=C[C@@H]21 (some centres not stated) | 101.0 | 108.0 | / | -6.4
CCCNCCc1ccccc1 | 100.0 | 103.0 | -12.6 | -46.9

Remaining list, next part
Second line of a record: PV pol inh	PV pol inh intensity	MbtI inh	Mtb MenB inh
c1ccc(Nc2nnc(-c3ccc(-c4nc5ccccc5s4)s3)o2)cc1
→ 101.0	101.0	-149.4	-55.9
O=C(c1cc(-c2ccccc2)n[nH]1)N1CC=C(c2ccccc2)CC1
→ 102.0	103.0	4.2	-11.8
COc1ccc(CNC(=O)c2cnn3c2NC(c2ccc(C)cc2)CC3C(F)F)cc1OC (configuration not stated)
→ 102.0	103.0	-1.9	-12.7
O=C(NCCc1ccccc1)C1CC(=O)N(CCc2ccccc2)C(=Nc2ccc(F)cc2)S1 (configuration not stated)
→ 101.0	105.0	-6.4	-8.6
COc1ccc(-c2nc3c(c(SC)n2)COC(C)(C)C3)cc1
→ 102.0	101.0	8.8	-51.6
C#CCOC(=O)Nc1cnccc1C(F)(F)F
→ 99.0	101.0	-11.6	-9.2
CSc1nc(-c2ccc(Cl)cc2)nc(N)c1C#N
→ 101.0	105.0	-13.6	-11.2
COC(=O)c1ccccc1N(C)C(=O)c1cc2ccccc2oc1=O
→ 99.0	101.0	-20.3	-0.9
CC(OC(=O)c1ccccc1NCc1ccco1)C(=O)Nc1ccc(Cl)cn1 (configuration not stated)
→ 101.0	107.0	100.1	-17.8
Cc1c(/C=N/NC(=O)Cc2cccs2)cc(C#N)n1C
→ 99.0	106.0	2.9	-2.2
CC(NC(=O)c1ccc(Br)cc1)C1CCCO1 (configuration not stated)
→ 105.0	102.0	-7.3	2.2
Cc1c(N=C/C=C/c2ccccc2)c(=O)n(-c2ccccc2)n1C
→ 100.0	104.0	7.1	10.6
Cc1ccccc1-n1c(SCc2nc(N)nc(N)n2)nc2sc3c(c2c1=O)CCCCC3
→ 106.0	112.0	-6.1	-19.1
CCCN1C(=O)CCS(=O)(=O)c2ccccc21
→ 99.0	102.0	1.1	-24.0
CCOc1ccc(-n2c3nc4ccccc4nc3c3c(=O)n(CCOC)cnc32)cc1
→ 101.0	107.0	8.1	1.8
CCC(CC)C(=O)N1CCN(c2ccccc2)CC1
→ 99.0	95.0	/	2.3
C[C@H](NC(=O)c1cccc(C(F)(F)F)c1)c1nc2ccccc2[nH]1
→ 104.0	90.0	-0.6	-12.8
CN1CCN(CC(O)COCc2ccccc2)CC1 (configuration not stated)
→ 97.0	102.0	8.3	-0.4
COC(=O)c1ccc(NC(=O)CNC(C)(C)CO)cc1
→ 102.0	103.0	18.6	-1.8
COc1ccccc1Cn1c(=O)c2cccnc2n(CC(=O)NCc2ccc(C)cc2)c1=O
→ 100.0	105.0	-11.4	4.4
Cc1nc(-c2cc(C#N)c(SCCNC(=O)c3ccc(Cl)cc3Cl)nc2C)cs1
→ 99.0	94.0	3.5	2.5
CCCn1c(=NC(=O)CS(=O)(=O)c2ccccc2)sc2cc(S(C)(=O)=O)ccc21
→ 104.0	103.0	-5.8	-2.1
CC1CCN(c2nc(-c3ccc(C(C)C)cc3)c(C#N)c(=O)[nH]2)CC1
→ 99.0	99.0	-0.1	-38.2
CC1CCN(C(=O)c2cc3c(=O)[nH]c4ccccc4c3s2)CC1
→ 98.0	100.0	11.2	-6.8
